Assay outcomes: PubChem, several laboratories
PKD1 kinase inh: blocks activity of human protein kinase D1; actives 0.056% (n = 200,000); PKD1 kinase fluorescence polarization assay; Q15139; inhibition, %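 (about 10 µM by stock and volumes)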;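 active = inhibition of 50% or more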;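 note: controls were vehicle for no effect and a reference inhibitor for full effect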
Target sequence (Q15139 whole entry, looked up): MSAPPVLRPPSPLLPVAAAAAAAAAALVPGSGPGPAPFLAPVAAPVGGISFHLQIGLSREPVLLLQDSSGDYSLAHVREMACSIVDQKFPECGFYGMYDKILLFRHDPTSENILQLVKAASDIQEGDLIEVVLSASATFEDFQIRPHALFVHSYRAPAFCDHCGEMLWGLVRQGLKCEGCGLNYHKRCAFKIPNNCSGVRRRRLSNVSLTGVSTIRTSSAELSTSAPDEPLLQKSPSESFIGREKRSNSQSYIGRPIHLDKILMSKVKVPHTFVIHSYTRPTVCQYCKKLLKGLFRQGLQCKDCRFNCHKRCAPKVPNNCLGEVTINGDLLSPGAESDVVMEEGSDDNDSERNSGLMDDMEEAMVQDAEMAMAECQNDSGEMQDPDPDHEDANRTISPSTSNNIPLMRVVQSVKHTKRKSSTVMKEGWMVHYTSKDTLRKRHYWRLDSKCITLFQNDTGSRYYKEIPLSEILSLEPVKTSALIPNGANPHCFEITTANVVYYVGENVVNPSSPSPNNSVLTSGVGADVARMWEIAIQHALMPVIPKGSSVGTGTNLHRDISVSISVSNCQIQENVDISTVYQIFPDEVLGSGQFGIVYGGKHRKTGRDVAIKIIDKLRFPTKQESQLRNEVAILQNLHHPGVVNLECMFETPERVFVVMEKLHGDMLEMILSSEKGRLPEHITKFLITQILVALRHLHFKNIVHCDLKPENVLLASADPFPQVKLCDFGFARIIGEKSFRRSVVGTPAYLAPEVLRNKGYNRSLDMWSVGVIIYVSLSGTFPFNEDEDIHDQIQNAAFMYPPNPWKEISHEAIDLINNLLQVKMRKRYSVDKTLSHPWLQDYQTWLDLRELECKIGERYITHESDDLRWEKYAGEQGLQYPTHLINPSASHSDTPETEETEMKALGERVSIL
Insulin prom inh: TRM-6 insulin promoter activity inhibition. TRM-6 cells (human fetal islet line), insulin promoter-eGFP reporter, imaging; reporter expression induced with tamoxifen. inhibition, % at 2 µM. actives 0.9% (n = 130,000). AID 1273;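 active = inhibition above the mean plus 3 SD, with well images judged a real hit on visual review, cut at about 60% in these data, passing the limit was not always enough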
HSV replic up: increases HSV replication in cells | HSV replication augmentation in cells, fold increase | maximum fold increase | actives 0.005% (n = 220,000) | AID 1956;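 active = peak rise of 1.5-fold or more in the series; tested in PC3 cells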;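 note: first round at 10 µM; read as green reporter fluorescence; hits show the peak of a series up to 25 µM; 1 = signal of infected wells without compound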
GALR2 ag: agonists of human galanin receptor 2 (GALR2). O43603. GALR2-expressing cells, agonist activation read-out. activation, %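 (tested at 5 µM)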. actives 0.48% (n = 140,000);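 active = above mean plus 3 SD of all compounds, about 5% in these data, not always enough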;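 note: 0% = vehicle buffer wells and 100% = reference agonist at full effect; tested in CHO reporter cells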
RGS16-Gao: regulators of human RGS16-Galphao interaction | bead-based flow cytometry RGS16-Galphao binding, fluorescence; actives lie on both sides | binding response (% of control), % at 10 µM | actives 0.38% (n = 220,000) | AID 1441;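 active = below 25% or above 175%, edge rows of some plates excepted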;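 note: Galphao activated by GDP with aluminum fluoride before binding; 100% = wells without compound and 0% = beads without RGS; some results beyond the cut were filed as inactive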
Insulin prom inh cell count: recorded beside Insulin prom inh, whose call it bears; normalized cell count, %; measured here: cell count, toxicity; reference of the scale not given here;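 cells exposed to compound for 48 h; stained nuclei by imaging scaled within each plate; lower means fewer cells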
HSV replic up primary fold: recorded beside HSV replic up, whose call it bears; fold increase; compound at 10 µM; measured here: primary screen fold increase 10 uM; tested in PC3 cells;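 GFP signal in the first replicate; 1 = infected wells without compound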
Active calls of the source: *.

How did O=S(=O)(c1ccc(Cl)cc1)N1CCCC(C(F)(F)F)C1 (centres undefined) do in these assays?
PKD1 kinase inh: -5; HSV replic up: inactive; RGS16-Gao: 98; HSV replic up primary fold: 1.1

What do the screens show for `COc1ccc(C(C)(C)C)cc1NC(=O)COC(=O)C(C)C`?
PKD1 kinase inh: -7; HSV replic up: inactive; RGS16-Gao: 97; HSV replic up primary fold: 0.9

What do the screens show for `CCOc1ccc(S(=O)(=O)Nc2ccc(S(=O)(=O)Nc3cc(OC)ccc3OC)cc2)cc1`?
PKD1 kinase inh: 0; Insulin prom inh: -14; HSV replic up: inactive; GALR2 ag: 0.1; RGS16-Gao: 107; Insulin prom inh cell count: 102; HSV replic up primary fold: 0.9

Results for O=C(C(c1ccccc1)c1ccccc1)N1CCOCC1 ?
PKD1 kinase inh: -7; Insulin prom inh: 23; HSV replic up: inactive; GALR2 ag: -2.5; RGS16-Gao: 104; Insulin prom inh cell count: 108; HSV replic up primary fold: 0.91

How did CC(NC(=O)/C(=C\c1cccc([N+](=O)[O-])c1)NC(=O)c1ccco1)C(=O)O (centres undefined) do in these assays?
PKD1 kinase inh: -13; HSV replic up: inactive; GALR2 ag: -3.0; RGS16-Gao: 117; HSV replic up primary fold: 0.91

How did CC1=C(C(=O)OCc2ccccc2)C(c2ccc(C#N)cc2)NC(=O)N1CCCC(=O)O (centres undefined) do in these assays?
PKD1 kinase inh: -20; Insulin prom inh: 52; HSV replic up: inactive; GALR2 ag: -1.4; RGS16-Gao: 97; Insulin prom inh cell count: 87; HSV replic up primary fold: 0.85

How did CCN(Cc1nc(-c2ccc(Cl)cc2)no1)CC1CCCO1 (centres undefined) do in these assays?
PKD1 kinase inh: -1; HSV replic up: inactive; RGS16-Gao: 109; HSV replic up primary fold: 1

What do the screens show for `COc1ccc(-c2oc3c(OC)c(OC)c(OC)c(O)c3c(=O)c2OC)cc1OC`?
PKD1 kinase inh: -6; HSV replic up: inactive; RGS16-Gao: 95; HSV replic up primary fold: 0.75

What do the screens show for `N/C(Cc1nc(-c2ccc(Br)cc2)cs1)=N\O`?
PKD1 kinase inh: -7; Insulin prom inh: -49; HSV replic up: inactive; RGS16-Gao: 101; Insulin prom inh cell count: 102; HSV replic up primary fold: 0.92

Results for CC(/C=C/C=C/c1ccccc1)=N/NC(=O)CNc1ccccc1C ?
PKD1 kinase inh: -4; Insulin prom inh: 17; HSV replic up: inactive; GALR2 ag: -1.1; RGS16-Gao: 104; Insulin prom inh cell count: 161; HSV replic up primary fold: 1.1

How did Cn1cccc1Cc1nnc(SCC(=O)NCc2ccco2)n1CCc1ccccc1 do in these assays?
PKD1 kinase inh: -2; Insulin prom inh: -82; HSV replic up: inactive; GALR2 ag: -2.0; RGS16-Gao: 93; Insulin prom inh cell count: 74; HSV replic up primary fold: 1

What do the screens show for `CS(=O)(=O)c1ccc(C(=O)NCc2ccccc2F)cc1`?
PKD1 kinase inh: 6; Insulin prom inh: 35; HSV replic up: inactive; RGS16-Gao: 97; Insulin prom inh cell count: 73; HSV replic up primary fold: 1

How did CCOc1ccc(N2C(=O)CC(N3CCC(NC(=O)Nc4ccccc4)CC3)C2=O)cc1 (centres undefined) do in these assays?
PKD1 kinase inh: 2; Insulin prom inh: -445; HSV replic up: inactive; GALR2 ag: -2.7; RGS16-Gao: 104; Insulin prom inh cell count: 87; HSV replic up primary fold: 0.95

How did Cc1ccc(OCC(=O)O/N=C(\N)Cc2ccc([N+](=O)[O-])cc2)cc1C do in these assays?
HSV replic up: inactive; RGS16-Gao: 101; HSV replic up primary fold: 1.1

Results for CSC1=C(C#N)C(c2sccc2C)CC(=O)N1 (centres undefined) ?
PKD1 kinase inh: -1; HSV replic up: inactive; RGS16-Gao: 109; HSV replic up primary fold: 0.86

What do the screens show for `COC(=O)c1cc(C(=O)Nc2cccc(C)n2)cc([N+](=O)[O-])c1`?
PKD1 kinase inh: -6; Insulin prom inh: -9; HSV replic up: inactive; GALR2 ag: 0.1; RGS16-Gao: 99; Insulin prom inh cell count: 92; HSV replic up primary fold: 1

What do the screens show for `COc1cc(CNn2cn[nH]c2=S)cc(Br)c1OCc1ccccc1F`?
PKD1 kinase inh: 1; HSV replic up: inactive; RGS16-Gao: 100; HSV replic up primary fold: 0.9

How did O=C1CC(c2ccco2)CC(O)=C1C=NCC1CCNCC1 (centres undefined) do in these assays?
PKD1 kinase inh: -1; Insulin prom inh: 0; HSV replic up: inactive; GALR2 ag: -1.4; RGS16-Gao: 97; Insulin prom inh cell count: 75; HSV replic up primary fold: 1.1

What do the screens show for `COc1ccc(/C(C)=N/Nc2nc3ccccc3n3cnnc23)cc1OC`?
HSV replic up: inactive; RGS16-Gao: 100; HSV replic up primary fold: 1.1

Results for COc1ccc(NC(=S)N(CCc2nc3cc(C)c(C)cc3[nH]2)Cc2cccnc2)cc1 ?
PKD1 kinase inh: 9; HSV replic up: inactive; GALR2 ag: -1.2; RGS16-Gao: 106; HSV replic up primary fold: 0.73

What do the screens show for `COc1cc(N2CCOCC2)ncn1`?
PKD1 kinase inh: -12; Insulin prom inh: 15; HSV replic up: inactive; GALR2 ag: -3.0; RGS16-Gao: 99; Insulin prom inh cell count: 123; HSV replic up primary fold: 0.89

What do the screens show for `CC(C)(C)c1ccc(C(=O)NC(Cc2ccccc2)C(=O)O)cc1` (centres undefined)?
PKD1 kinase inh: -7; Insulin prom inh: 0; HSV replic up: inactive; GALR2 ag: -0.4; RGS16-Gao: 99; Insulin prom inh cell count: 190; HSV replic up primary fold: 0.73

How did CN(CCC#N)S(=O)(=O)c1ccc2[nH]cc(C(=O)NCCc3ccccc3)c(=O)c2c1 do in these assays?
PKD1 kinase inh: 5; Insulin prom inh: 43; HSV replic up: inactive; GALR2 ag: -2.4; RGS16-Gao: 96; Insulin prom inh cell count: 110; HSV replic up primary fold: 1.1

Results for COc1cc(C(=O)Nc2ccc(C#N)cc2)c([N+](=O)[O-])cc1OC ?
PKD1 kinase inh: 9; HSV replic up: inactive; RGS16-Gao: 98; HSV replic up primary fold: 1.1

Results for O=C1C2C3CCCC3=C3CCCC3C2C(=O)N1c1cccc(Cl)c1 (centres undefined) ?
PKD1 kinase inh: -6; HSV replic up: inactive; GALR2 ag: 0.9; RGS16-Gao: 102; HSV replic up primary fold: 1.1

Results for CC(=O)c1ccc(NC2c3ncccc3C(=O)N2Cc2ccc(F)cc2)cc1 (centres undefined) ?
PKD1 kinase inh: -8; Insulin prom inh: 21; HSV replic up: inactive; GALR2 ag: -1.9; RGS16-Gao: 99; Insulin prom inh cell count: 103; HSV replic up primary fold: 0.88

Results for COC(=O)c1cccc(NC(=O)C(C)(C)C)c1 ?
HSV replic up: inactive; RGS16-Gao: 95; HSV replic up primary fold: 1.4

Results for COc1ccc(NC(=O)CSc2nnc(CCC(=O)Nc3ccc(C)c(Cl)c3)n2C)cc1 ?
PKD1 kinase inh: -4; Insulin prom inh: -67; HSV replic up: inactive; GALR2 ag: -3.7; RGS16-Gao: 102; Insulin prom inh cell count: 117; HSV replic up primary fold: 0.95

Results for CC(C)c1cccc(C(C)C)c1NC(=O)COC(=O)c1ccc(OCC(=O)Nc2cccc(C(F)(F)F)c2)cc1 ?
PKD1 kinase inh: 1; Insulin prom inh: -47; HSV replic up: inactive; GALR2 ag: -0.5; RGS16-Gao: 102; Insulin prom inh cell count: 100; HSV replic up primary fold: 1

Results for C=CCn1c(CC(C)(C)C)nc2ccccc21 ?
PKD1 kinase inh: 6; Insulin prom inh: 67; HSV replic up: inactive; RGS16-Gao: 101; Insulin prom inh cell count: 122; HSV replic up primary fold: 0.96

For reference, three of the compounds above.
What do the screens show for `COC(=O)c1cc(C(=O)Nc2cccc(C)n2)cc([N+](=O)[O-])c1`?
PKD1 kinase inh: -6; Insulin prom inh: -9; HSV replic up: inactive; GALR2 ag: 0.1; RGS16-Gao: 99; Insulin prom inh cell count: 92; HSV replic up primary fold: 1

What do the screens show for `COc1cc(CNn2cn[nH]c2=S)cc(Br)c1OCc1ccccc1F`?
PKD1 kinase inh: 1; HSV replic up: inactive; RGS16-Gao: 100; HSV replic up primary fold: 0.9

How did O=C1CC(c2ccco2)CC(O)=C1C=NCC1CCNCC1 (centres undefined) do in these assays?
PKD1 kinase inh: -1; Insulin prom inh: 0; HSV replic up: inactive; GALR2 ag: -1.4; RGS16-Gao: 97; Insulin prom inh cell count: 75; HSV replic up primary fold: 1.1

The listing picks up; the two compounds before the break are reprinted first.
Results for CC(C)c1cccc(C(C)C)c1NC(=O)COC(=O)c1ccc(OCC(=O)Nc2cccc(C(F)(F)F)c2)cc1 ?
PKD1 kinase inh: 1; Insulin prom inh: -47; HSV replic up: inactive; GALR2 ag: -0.5; RGS16-Gao: 102; Insulin prom inh cell count: 100; HSV replic up primary fold: 1

Results for C=CCn1c(CC(C)(C)C)nc2ccccc21 ?
PKD1 kinase inh: 6; Insulin prom inh: 67; HSV replic up: inactive; RGS16-Gao: 101; Insulin prom inh cell count: 122; HSV replic up primary fold: 0.96

Results for CCOC(=O)C1(C(=O)OCC)C(c2ccccc2)CC(O)N1C(C)=O (centres undefined) ?
PKD1 kinase inh: 0; HSV replic up: inactive; RGS16-Gao: 98; HSV replic up primary fold: 0.97

Results for CN(C)c1ccc(/C=N/NC(=O)c2ccn(C)n2)cc1 ?
HSV replic up: inactive; RGS16-Gao: 84; HSV replic up primary fold: 1.1

Results for CCC(CC)C(=O)N1CC(=O)Nc2ccc(Br)cc2C1c1ccccc1 (centres undefined) ?
PKD1 kinase inh: -8; HSV replic up: inactive; GALR2 ag: -0.2; RGS16-Gao: 98; HSV replic up primary fold: 0.92

How did COc1ccc(S(=O)(=O)NCC2CCCN(C(=O)c3ccccc3)C2)cc1 (centres undefined) do in these assays?
PKD1 kinase inh: 2; HSV replic up: inactive; RGS16-Gao: 98; HSV replic up primary fold: 0.95

Results for Cc1ccccc1C1CC(=O)NC2=C1C(=O)CCC2 (centres undefined) ?
PKD1 kinase inh: -2; Insulin prom inh: 9; HSV replic up: inactive; GALR2 ag: -1.6; RGS16-Gao: 105; Insulin prom inh cell count: 78; HSV replic up primary fold: 1

What do the screens show for `O=c1c2ccccc2nnn1CSc1nnc(COc2ccc(Cl)cc2)n1Cc1ccco1`?
PKD1 kinase inh: 9; Insulin prom inh: -27; HSV replic up: inactive; GALR2 ag: -3.6; RGS16-Gao: 95; Insulin prom inh cell count: 92; HSV replic up primary fold: 0.78

How did COc1cc(OC)cc(C(=O)N[C@H](C(=O)OCC(=O)Nc2ccc(C)cc2C)C(C)C)c1 do in these assays?
PKD1 kinase inh: -8; Insulin prom inh: -8; HSV replic up: inactive; GALR2 ag: -1.5; RGS16-Gao: 102; Insulin prom inh cell count: 71; HSV replic up primary fold: 0.94

How did CC(C)(C)C(=O)COC(=O)C1CC(=O)N(c2ccccc2)C1 (centres undefined) do in these assays?
PKD1 kinase inh: -3; Insulin prom inh: -4; HSV replic up: inactive; RGS16-Gao: 75; Insulin prom inh cell count: 61; HSV replic up primary fold: 0.99

How did CCCCC(=O)Nc1cc([N+](=O)[O-])ccc1Cl do in these assays?
PKD1 kinase inh: -3; Insulin prom inh: -155; HSV replic up: inactive; GALR2 ag: 0.1; RGS16-Gao: 97; Insulin prom inh cell count: 174; HSV replic up primary fold: 1

How did COC(=O)[C@H](Cc1ccccc1)NC(=O)NCc1cccs1 do in these assays?
PKD1 kinase inh: 3; Insulin prom inh: -92; HSV replic up: inactive; GALR2 ag: -2.9; RGS16-Gao: 102; Insulin prom inh cell count: 89; HSV replic up primary fold: 1.1

What do the screens show for `N#Cc1c(N)nc2c(c1N)CC(CCl)O2` (centres undefined)?
PKD1 kinase inh: 16; Insulin prom inh: 46; HSV replic up: inactive; GALR2 ag: -1.9; RGS16-Gao: 103; Insulin prom inh cell count: 83; HSV replic up primary fold: 1.1

What do the screens show for `Cc1csc(NC(=O)CSc2ncc(-c3ccccc3)[nH]2)n1`?
PKD1 kinase inh: -2; HSV replic up: inactive; GALR2 ag: -0.3; RGS16-Gao: 151; HSV replic up primary fold: 0.96

Results for COc1ccccc1NCc1ccc([N+](=O)[O-])s1 ?
PKD1 kinase inh: -9; Insulin prom inh: 21; HSV replic up: inactive; GALR2 ag: -2.2; RGS16-Gao: 100; Insulin prom inh cell count: 134; HSV replic up primary fold: 1.1

Entries shown so far containing a CF3 group, in the order listed:
How did O=S(=O)(c1ccc(Cl)cc1)N1CCCC(C(F)(F)F)C1 (centres undefined) do in these assays?
PKD1 kinase inh: -5; HSV replic up: inactive; RGS16-Gao: 98; HSV replic up primary fold: 1.1

Results for CC(C)c1cccc(C(C)C)c1NC(=O)COC(=O)c1ccc(OCC(=O)Nc2cccc(C(F)(F)F)c2)cc1 ?
PKD1 kinase inh: 1; Insulin prom inh: -47; HSV replic up: inactive; GALR2 ag: -0.5; RGS16-Gao: 102; Insulin prom inh cell count: 100; HSV replic up primary fold: 1
